Mtb H37Rv: M. tuberculosis H37Rv growth inhibitors, H37Rv strain (AID 1626); 0.95% of 220,000 active; inhibition, % at 10 µM; hits with a dose series show IC50 in µM; M. tuberculosis H37Rv growth inhibition; higher % means a stronger effect;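 active = confirmed in a dose series; inconclusive = inhibition above 80% but not taken into the dose series; inactive = below 80% or under 30% at every dose of the series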;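 note: bacteria incubated seven days before Alamar blue readout; 0% = bacteria only wells and 100% = bacteria with antibiotic wells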
Mtb betalactam: beta-lactam sensitization of Mtb H37Rv | M. tuberculosis H37Rv growth with meropenem, percent inhibition; hits of this screen are not shown here | inhibition, % at 25 µM | 0.27% of 330,000 active | AID 434955;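 active = about 74% or more and at least 40 points above the plate without the antibiotic, then above 30% in a dose series; inconclusive = first-round hits that could not be retested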;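 note: growth measured after seven days incubation then overnight dye step; 0% = bacteria only wells and 100% = bacteria with antibiotic; twin plates without the antibiotic show which effects depend on it; some results filed as inactive read as strong as hits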
RecA intein inh: inhibitors of M. tuberculosis RecA intein splicing. inhibition, %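 (about 9 µM by stock and volumes)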. 0.75% of 290,000 active. P9WHJ3. cell-free RecA intein splicing, fluorescence. AID 2221; in the data active = inhibition above about 30%; inconclusive = no clear call, values can overlap the other calls;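 note: 0% = vehicle wells and 100% = reference inhibitor control wells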
Target sequence (P9WHJ3 whole entry, looked up): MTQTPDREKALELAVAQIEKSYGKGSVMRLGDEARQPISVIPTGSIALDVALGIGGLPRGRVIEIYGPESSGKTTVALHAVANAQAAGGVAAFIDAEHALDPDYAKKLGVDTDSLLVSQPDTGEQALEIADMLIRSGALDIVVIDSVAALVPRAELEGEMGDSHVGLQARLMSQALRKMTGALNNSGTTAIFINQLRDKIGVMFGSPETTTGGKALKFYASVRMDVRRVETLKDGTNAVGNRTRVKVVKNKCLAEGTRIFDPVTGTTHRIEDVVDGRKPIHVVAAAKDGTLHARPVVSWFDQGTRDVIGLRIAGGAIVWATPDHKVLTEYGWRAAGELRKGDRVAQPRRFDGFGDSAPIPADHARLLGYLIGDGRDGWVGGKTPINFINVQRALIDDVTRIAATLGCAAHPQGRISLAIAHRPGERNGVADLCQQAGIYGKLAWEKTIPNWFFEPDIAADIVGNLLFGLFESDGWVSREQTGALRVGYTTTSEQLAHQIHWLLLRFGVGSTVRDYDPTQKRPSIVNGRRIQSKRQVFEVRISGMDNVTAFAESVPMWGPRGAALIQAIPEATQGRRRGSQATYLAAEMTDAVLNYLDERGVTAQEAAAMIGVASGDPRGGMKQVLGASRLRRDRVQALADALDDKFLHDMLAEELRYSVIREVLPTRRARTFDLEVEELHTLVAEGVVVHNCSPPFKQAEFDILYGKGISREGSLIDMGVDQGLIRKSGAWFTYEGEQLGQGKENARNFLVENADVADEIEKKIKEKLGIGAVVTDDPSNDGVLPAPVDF
Arbovirus anti: antivirals against arbovirus infection | 0.37% of 200,000 active | AID 1251 | arbovirus infection cell-based antiviral screen | inhibition, % at 10 µM;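 active = inhibition from about 30%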;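 note: bluetongue infection of BSR cells; cell survival read as ATP light after 72 h; 0% = infected wells without compound and 100% = uninfected wells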
YopH PTP inh: inhibitors of Yersinia enterocolitica YopH tyrosine phosphatase; fluorescence Ex485/Em525; 0.16% of 140,000 active; inhibition, %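 (about 10 µM by stock and volumes)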;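 active = inhibition of 50% or more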;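 note: controls were vehicle for no effect and minimum signal wells for full effect; inactives centre near -20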
Arbovirus anti repeat: second read-out of Arbovirus anti, no call of its own (marks repeat the call); inhibition, %; measured here: 10K subset replicate screen; many hits read low in the repeat;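 first of two repeat runs on a subset; 0% = infected and 100% = uninfected wells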
* = called active by the depositor; u = inconclusive; x = no result given; & = joins results of further samples. An excerpt, so the mix of outcomes need not match the whole.

SMILES	Mtb H37Rv	Mtb betalactam	RecA intein inh	Arbovirus anti	YopH PTP inh	others
O=C(Cn1nc(-c2ccccc2)c2ccccc2c1=O)Nc1ccc(F)cc1	4%	11	0.2	x	x
Cc1ccc(S(=O)(=O)/N=C2\CN(C)C(=O)N2C)cc1	2%	93	1.2	4	-7
OCc1ncccc1O	8%	-1	2.2	x	x
COc1ccc(-c2nc3ncccn3c2Nc2ccc3c(c2)OCCO3)cc1	x	x	-1.8	-10	-10
O=[N+]([O-])c1cc(-c2nnc(-c3ccccc3)o2)ccc1Oc1ccc(Cl)cc1	2%	-4	0.1	-13	-9
COc1cccc2cc3c(=O)n(-c4ccccc4)nc-3oc12	6%	68	0.4	3	-19	Arbovirus anti repeat=-1
CCCC(O)(CCN(C)C)c1ccc(OC)cc1 (centres undefined)	8%	-9	-3.8	2	6
Cc1ccccc1CSCCNC(=O)CN(c1ccc2c(c1)OCO2)S(C)(=O)=O	7%	-4	-1.5	-3	-32
COc1cc(NC(=O)c2ccnc(N)c2)cc(C(=O)Nc2cccc(C(F)(F)F)c2)c1	9%	95	14	x	x
CCOC(=O)C1CCCN(S(=O)(=O)c2cc(C(=O)OC)n(C)c2)C1 (centres undefined)	x	1	1.9	x	x
O=C(COc1ccccc1)N1CCN(CC2CC3C=CC2C3)CC1 (centres undefined)	0%	-3	-0.1	-2	-18
O=C(O)COCc1nc2ccccc2[nH]1	-2%	1	0.3	-2	-30
COc1ccc(NC2CCCN(C(=O)c3cccnc3)C2)cc1 (centres undefined)	x	-9	-3.0	x	x
O=C(N/N=C\c1ccc(Cl)cc1)c1sccc1-n1cccc1	-1%	-4	0.4	-9	-82
O=C(c1cnc2c(c1)COc1ccc(Cl)cc1-2)c1ccccc1O	4%	-3	2.7	6	-31
COc1ccc(CNC(=O)COC(=O)CCOc2ccc(C)cc2)cc1OC	x	4	-2.9	x	x
COc1cccc(CC(=O)N[C@@H](CCSC)c2nc3ccccc3[nH]2)c1	-2%	-6	-0.1	7	x
CN(C)S(=O)(=O)c1ccc(Cl)c(NC(=O)COC(=O)CN2C(=O)C3CCCCC3C2=O)c1 (centres undefined)	-2%	-6	0.1	-3	x
COc1ccc(C2CC(c3cccs3)=NN2C(=O)COC(=O)c2cncc(Br)c2)cc1OC (centres undefined)	37%	-9	3.0	2	x
COc1ccc(NC(=O)CN(C)C(=O)c2sc3ccccc3c2Cl)cc1	x	-12	2.1	x	x
O=C(CCN1C(=O)/C(=C/C=C/c2ccccc2)SC1=S)Nc1ccccn1	0%	-6	2.3	-2	x
Cc1sc2ncnc(N3CCOCC3)c2c1C	-7%	1	-2.4	13	-8
O=C(NC(Cc1ccccc1)C(=O)O)/C(=C/c1ccccc1)NC(=O)c1cccc(Br)c1 (centres undefined)	-4%	2	0.1	6	x
Cc1cc(C(=O)CSc2nnnn2-c2ccc(O)cc2)c(C)n1C	0%	1	x	-7	x
CC(=O)Nc1ccc(S(=O)(=O)N2CCC(NC(=O)c3ccccc3)CC2)cc1	x	4	-1.9	x	x
Cc1nc2nc(-c3ccccc3)[nH]n2c(=O)c1Cc1ccccc1	3%	25	x	3	35
O=C(NN1CCOCC1)c1ccc(F)cc1	x	4	1.6	x	x
COc1ccc(N2C(=O)C(F)(F)C2c2ccc(C)cc2)cc1OC (centres undefined)	u	98	1.8	3	x
O=C(N/N=C/c1cccs1)C1COc2ccccc2O1 (centres undefined)	13%	3	0.3	-19	-11
Cc1ccc(-c2ccnc3c(Cl)c(C)nn23)cc1	x	-3	-1.1	x	x

Pulled by compound from the entries so far, 3 records:
SMILES	Mtb H37Rv	Mtb betalactam	RecA intein inh	Arbovirus anti	YopH PTP inh	others
O=C(NN1CCOCC1)c1ccc(F)cc1	x	4	1.6	x	x
COc1ccc(N2C(=O)C(F)(F)C2c2ccc(C)cc2)cc1OC (centres undefined)	u	98	1.8	3	x
O=C(NC(Cc1ccccc1)C(=O)O)/C(=C/c1ccccc1)NC(=O)c1cccc(Br)c1 (centres undefined)	-4%	2	0.1	6	x

(cont.)
SMILES	Mtb H37Rv	Mtb betalactam	RecA intein inh	Arbovirus anti	YopH PTP inh	others
NC(=S)N/N=C/c1ccccc1OCCSc1ccc(Cl)cc1	32%	97	13	-38	-12
COc1ccc(C2(C(=O)NC(C)C)CCCC2)cc1OC	-3%	-6	0.0	3	30
Cc1ccc(S(=O)(=O)NCCC(=O)N2CC(C)OC(C)C2)cc1 (centres undefined)	x	-11	5.2	x	x
O=c1c2ccccc2c(C=NCCO)c(O)n1-c1ccccc1	-4%	-9	2.7	-1	-21
C=CCN1C(=O)c2ccc(C(=O)N(C)CC(=O)Nc3ccc(Br)cc3C)cc2C1=O	x	-13	-0.3	x	x
Cc1ccc(NC(=O)c2ccc3c(c2)OCCO3)cc1C	x	12	-2.3	x	x
CC(C)OC(=O)CCC/C=C\C[C@@H]1[C@@H](CC[C@@H](O)CCc2ccccc2)[C@H](O)C[C@@H]1O	-6%&9%	x	x	6	x
Cc1ccc(OCCSc2ncnc3nc[nH]c23)cc1	8%	5	-1.1	-28	-9
COc1ccccc1CNS(=O)(=O)c1cc2c3c(c1)CCN3C(=O)CC2	x	2	-0.6	x	x
COc1ccccc1CN1CC(C(=O)NCC2CCCO2)CC1=O (centres undefined)	-1%	-2	2.8	1	4
Cc1ccc(-n2nc3c(c2NC(=O)c2ccc4c(c2)OCO4)CS(=O)(=O)C3)cc1C	x	-6	-1.4	x	x
O=C(NCc1cccc(CNC(=O)Nc2cccc(O)c2)c1)Nc1cccc(O)c1	x	6	-0.5	x	x
O=C1NC(=O)C(c2ccccc2)(c2ccccc2)N1	-7%&-3%	-4&2	-1.0&-0.3	3&8&-6	-24&3&-30
O=C(COC(=O)C1=COCCO1)Nc1cccc(S(=O)(=O)N2CCOCC2)c1	x	-12	1.3	x	x
COc1cc(C(=O)N(Cc2ccc(F)cc2)C2CCS(=O)(=O)C2)cc(OC)c1OC (centres undefined)	-2%	2	1.4	-6	-13
COc1ccc(CCNC(=O)Cn2ccc3cc(S(=O)(=O)N4CCCC4)ccc32)cc1OC	x	-8	-0.3	x	x
C=CCNc1nc(-c2ccc(O)c(C(N)=O)c2)cs1	9%	-4	8.4	3	-3
Cc1cccc(Cc2ccc(Cl)nn2)c1	-3%	-1	-0.3	-4	x
N#CCCN(Cc1ccccc1)C(=O)c1nccnc1C(=O)O	x	-7	-0.5	x	x
COc1ccc(C(=O)CSc2nnc(-c3ccc(C)cc3)o2)cc1	-2%	13	5.2	-7	-24
Cc1cc(C(=O)CSc2nncs2)c(C)n1-c1c(C)n(C)n(-c2ccccc2)c1=O	-7%	8	0.0	-5	-39
CCOc1ccc(OCCCCn2ccnc2)cc1	-2%	-1	-1.7	-8	-27
Cc1c(Cl)c([N+](=O)[O-])nn1CCCC(=O)Nc1cccc(Cl)c1Cl	4%	-10	1.5	-10	14
COCc1cc(C)nc(OCC(=O)N/N=C/c2ccc(O)cc2)c1C#N	-2%	0	0.6	-4	-10
COc1ccc(C(=O)N2CCC(n3nccc3NC(=O)C3CC3)CC2)cc1F	x	-2	3.9	x	x
CCn1cc(C(=O)NCC2CCCO2)c(=O)c2cc(S(=O)(=O)N(C)C)ccc21 (centres undefined)	-9%	-4	-0.8	-1	-14	Arbovirus anti repeat=3
O=C(NCc1ccccc1)N1CCC(CO)(Cc2cccc(F)c2)CC1	12%	-2	-0.5	x	x
COc1cc(/C=N/NC(=O)c2ccc(F)cc2)ccc1OC(=O)c1ccco1	0%	-4	30*	2	-17
O=C(c1ccc(F)cc1F)N1CCC(N2CCC(C(=O)N3CCOCC3)CC2)CC1	x	1	3.0	x	x
CCC(C)(C(=O)NC1CCCC1)N(C(=O)CC1NC(=O)NC1=O)c1c(C)n(C)n(-c2ccccc2)c1=O (centres undefined)	3%	1	-4.2	6	x
Cc1ccc(C)n1CCN1CCN(S(=O)(=O)c2ccc(F)cc2F)CC1	-1%	-7	4.8	x	x
Cn1cccc1Cc1nnc(SCC(=O)NCC2CCCO2)n1CCc1ccccc1 (centres undefined)	-6%	-14	-0.3	-1	-45
COc1ccc(NS(=O)(=O)c2cc(C)ccc2C)cc1	-12%	-6	2.4	-20	-10
COc1ccccc1C(=O)N(Cc1ccccc1)c1ccc(C)cc1	x	1	8.8	x	x
Cc1ccc2[nH]c(=O)c(CN(CCCN3CCOCC3)C(=O)Nc3cccc(Cl)c3)cc2c1	4%	6	0.4	-4	-12
O=C(c1ccc(N2CCCC2)c([N+](=O)[O-])c1)N1CCN(c2ccccn2)CC1	-10%	1	0.6	3	x
O=C1C=C(NNC(=O)c2ccncc2)CC(c2ccccc2)C1 (centres undefined)	u	99	-2.0	2	x
CCN(CC)c1c([N+](=O)[O-])c(=O)oc2ccccc12	-4%	-6	-2.0	3	x
O=C(c1ccc(Cl)c(Cl)c1)N1CCC(=O)N(C(COCc2ccc(Cl)cc2)Cc2ccccc2)CC1 (centres undefined)	6%	-3	10.0	-32	-7
O=C(/C=C/c1cc([N+](=O)[O-])ccc1OC(F)F)Nc1cccc2ccccc12	5%	13	2.0	-8	-6
CC1CCN(C(=O)CCc2nnc(-c3ccccc3)o2)CC1	-8%	0	0.1	-3	x
CCn1c(=O)c2sccc2n(Cc2cc(C(=O)OC)ccc2OC)c1=O	x	1	-3.0	x	x
COc1ccccc1NC(=O)CN(C)S(=O)(=O)c1ccc(F)cc1	-1%	-5	1.1	-5	-18
CCN(CC)c1ccc(/C=N/NC(=O)CN2CCCc3ccccc32)cc1	9%	-3	0.4	-15	-24
O=C(CSc1nc2ccccc2s1)N1CCCCC1	-3%	-5	0.7	0	0
COc1cccc(CNC(=O)C2=C(C)C(=O)OC23CCC(C)CC3)c1 (centres undefined)	9%	-11	0.3	10	-18

Among those listed so far, 12 contain fluorine:
SMILES	Mtb H37Rv	Mtb betalactam	RecA intein inh	Arbovirus anti	YopH PTP inh	others
O=C(Cn1nc(-c2ccccc2)c2ccccc2c1=O)Nc1ccc(F)cc1	4%	11	0.2	x	x
COc1cc(NC(=O)c2ccnc(N)c2)cc(C(=O)Nc2cccc(C(F)(F)F)c2)c1	9%	95	14	x	x
O=C(NN1CCOCC1)c1ccc(F)cc1	x	4	1.6	x	x
COc1ccc(N2C(=O)C(F)(F)C2c2ccc(C)cc2)cc1OC (centres undefined)	u	98	1.8	3	x
COc1cc(C(=O)N(Cc2ccc(F)cc2)C2CCS(=O)(=O)C2)cc(OC)c1OC (centres undefined)	-2%	2	1.4	-6	-13
COc1ccc(C(=O)N2CCC(n3nccc3NC(=O)C3CC3)CC2)cc1F	x	-2	3.9	x	x
O=C(NCc1ccccc1)N1CCC(CO)(Cc2cccc(F)c2)CC1	12%	-2	-0.5	x	x
COc1cc(/C=N/NC(=O)c2ccc(F)cc2)ccc1OC(=O)c1ccco1	0%	-4	30*	2	-17
O=C(c1ccc(F)cc1F)N1CCC(N2CCC(C(=O)N3CCOCC3)CC2)CC1	x	1	3.0	x	x
Cc1ccc(C)n1CCN1CCN(S(=O)(=O)c2ccc(F)cc2F)CC1	-1%	-7	4.8	x	x
O=C(/C=C/c1cc([N+](=O)[O-])ccc1OC(F)F)Nc1cccc2ccccc12	5%	13	2.0	-8	-6
COc1ccccc1NC(=O)CN(C)S(=O)(=O)c1ccc(F)cc1	-1%	-5	1.1	-5	-18
